High-throughput results from PubChem.
CDC25B-CDK2 inh – primary biochemical HTRF screen for blockers of M-phase inducer phosphatase 2 binding to CDK2/cyclin A. z-score (test concentration not listed). HTRF CDC25B-CDK2/CyclinA binding, anti-His/anti-Flag; hits give high values. 0.72% of 94,000 active;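 note: score is relative to mean and SD of negative controls; strong numbers were not always called active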
TAR Tat displ – TAR RNA-Tat peptide displacers, HIV-1, primary screen, biochemical, FRET, FAM/TAMRA-labeled Tat. 0.6% of 100,000 active. HIV-1 TAR RNA, Tat peptide displacement FRET; hits give high values. z-score (concentration not given with the values);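 note: score is relative to mean and SD of negative controls; some compounds called inactive have numbers as strong as hits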
An asterisk follows results filed as active; / = not tested or not shown.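 Rule for the calls: active = z-score from 3 up in half or more of its runs; inactive = the rest.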

no. | mol | CDC25B-CDK2 inh | TAR Tat displ
1 | O=C(NCCO)C(=O)NCC1CCCO1 (centres undefined) | -1.7 | 0.71
2 | O=C(NCc1ccco1)C1CCCN(c2nnc(-n3cccc3)s2)C1 (centres undefined) | / | 2.5
3 | Cc1cc(C)n2c(SCc3c(C)noc3C)nnc2n1 | -1.2 | /
4 | Cn1c(=O)c2c(-c3ccccc3Br)n(Cc3ccccc3)cc2n(C)c1=O | -0.66 | 1.4
5 | Cc1ccccc1N1C(=O)C2C(c3ccccc3)OC3(C(=O)c4ccccc4C3=O)C2C1=O (centres undefined) | -1.7 | 0.49
6 | CC(C)Sc1ncc(Cl)c(C(=O)Nc2sc3c(c2C(=O)NCc2ccco2)CCC3)n1 | -2.5 | 1.9
7 | CC1CCN(Cc2nnc(-c3c[nH]c4ccccc34)o2)CC1 | -0.43 | 0.68
8 | Cc1cc2c(c(=O)n1Cc1cccs1)C(c1cccnc1)C(C#N)=C(N)O2 (centres undefined) | 0.59 | /
9 | COC(=O)C1=NNC2C(=O)N(c3ccccc3C)C(=O)C12 (centres undefined) | -1.2 | 0.85
10 | NC(=O)N/N=C1\CCCc2ccccc21 | -2.1 | /
11 | CC1=C(C(=O)OC2CCCCC2)C(c2coc3ccc(C)cc3c2=O)C2=C(CCCC2=O)N1 (centres undefined) | -0.65 | 0.48
12 | O=C(O)c1ccc(N2CCCc3ccccc32)s1 | -1.7 | 0.64
13 | CCOC(=O)C1=C(C)N=C2SCC(=O)N2C1c1ccc(OC)cc1 (centres undefined) | -1.5 | 0.6
14 | COc1ccc(S(=O)(=O)Nc2ccc(N3CCCS3(=O)=O)cc2)cc1C | / | -0.12
15 | Cc1cc2n(n1)CCC(=O)N2CC(=O)NCCCN1CCCCC1C (centres undefined) | / | 2.4
16 | O=C(O)c1cccc(N2C(=O)C3C4C=CC(C4=C(c4ccccc4)c4ccccc4)C3C2=O)c1 (centres undefined) | -2 | /
17 | CN(c1ccc(Br)cc1)S(=O)(=O)c1ccc2c(c1)oc(=O)n2C | -1.5 | /
18 | Fc1ccc(-c2nnc3sc(CN4CCCCC4)cn23)cc1 | 0.49 | 0.43
19 | O=c1[nH]c(/C=C/c2cccs2)c([N+](=O)[O-])c(=O)[nH]1 | -0.17 | 0.85
20 | CC(=O)N[C@H]1[C@@H](OCc2ccccc2)O[C@@H]2COC(c3ccccc3)O[C@H]2[C@@H]1O[C@H](C)C(=O)O (some centres undefined) | -1 | /
21 | O=C(Nc1ccc(NC(=O)c2ccccc2O)cc1)Nc1ccc(F)cc1F | -2.3 | /
22 | CN1C(C(=O)NCc2cccs2)=CC(c2ccc(F)cc2)=NS1(=O)=O | -1.7 | 2.3
23 | CCCN(CCC)C(=O)CN1C(=O)CSc2ccc(S(=O)(=O)N3CCC(C)CC3)cc21 | -0.96 | 0.83
24 | COc1cc2ccccc2cc1C(=O)Nc1cccc(-c2nc3ncccc3o2)c1 | -3.7 | /
25 | Cc1ccc(-n2ncc3c(NCc4ccco4)ncnc32)cc1 | / | 2.3
26 | O=C(/C=C/c1ccccc1)NNC(=O)CSCc1cccc2ccccc12 | -2.3 | /
27 | COc1ccc(NC(=O)c2nn(-c3ccc(F)cc3)ccc2=O)c(OC)c1 | -2.1 | -0.69
28 | Cc1ccc(CN2CCNC2=O)cc1 | / | 2.6
29 | CCOc1cc(C(=O)Nc2ccc3c4c(cccc24)CC3)cc(OCC)c1OCC | -3.7 | /
30 | C=CCOc1ccc(C2c3c(oc4ccccc4c3=O)C(=O)N2Cc2ccc3c(c2)OCO3)cc1OC (centres undefined) | -0.63 | -0.76

Record cards, from the list above.
Cc1cc(C)n2c(SCc3c(C)noc3C)nnc2n1 in the list: CDC25B-CDK2 inh: -1.2; TAR Tat displ: /
C=CCOc1ccc(C2c3c(oc4ccccc4c3=O)C(=O)N2Cc2ccc3c(c2)OCO3)cc1OC (centres undefined) in the list: CDC25B-CDK2 inh: -0.63; TAR Tat displ: -0.76

Following part
no. | mol | CDC25B-CDK2 inh | TAR Tat displ
31 | O=C(COc1ccccc1)Nc1nc(-c2cccs2)ns1 | -0.65 | 0.43
32 | CCc1nn(CCCC(=O)NCCC(C)C)c(=O)c2cc3occc3n12 | -0.32 | 0.7
33 | COc1ccc(S(=O)(=O)N2CCC(c3ccc(=O)n(-c4ccccc4)n3)CC2)cc1OC | -1.7 | 0.56
34 | C#CCn1c(CCCCC)nc2ccccc21 | 0.47 | 1.1
35 | COc1ccc(C2CC(=O)C3=C(C2)Nc2ccccc2NC3c2cccnc2)cc1OC (centres undefined) | -1.3 | -4.2
36 | CCOC(=O)C1CCN(C(=O)Cn2nc(C)n3cccc3c2=O)CC1 | -1.4 | 1.2
37 | CCc1nnc2sc(-c3ccc4c(c3)OCCO4)nn12 | -1.4 | -0.84
38 | Cc1c(C)n(C)c2ccc(C(=O)Nc3ccc(S(=O)(=O)N4CCCC4)cc3)cc12 | -1.8 | /
39 | CCOc1ccc(-n2ccc(=O)c(C(=O)Nc3sc4c(c3C(N)=O)CCCC4)n2)cc1 | -0.77 | 1.3
40 | COc1cccc(N2C(=O)CN=C2Nc2nc(C)cc(C)n2)c1 | -0.81 | 1.4
41 | FC(F)(F)c1cccnc1N1CCN(c2ncnc3nc[nH]c23)CC1 | -1.4 | -0.29
42 | O=C(Nc1cccc(C(F)(F)F)c1)Nc1csc(Cc2ccsc2)n1 | -1.1 | /
43 | CCc1nn(CC(=O)O)c(=O)c2cc3c(OC)cccc3n12 | -0.67 | 0.97
44 | C=CCn1c(=O)c2c(nc3n2CCN3c2ccc(CC)cc2)n(C)c1=O | / | 0.64
45 | CNC(=O)N(C1=NCC(C)(C)S1)c1ccc(F)c(Cl)c1 | 1.8 | -0.84
46 | COc1ccc(-c2noc(-c3nnn(-c4cc(F)ccc4F)c3C)n2)cc1 | / | -0.44
47 | CCc1nn(CCCC(=O)N2CCN(C(=O)c3ccco3)CC2)c(=O)c2cc3occc3n12 | 0.79 | 1
48 | O=C(Nc1ccc2[nH]c(=O)[nH]c2c1)c1ccc(Br)o1 | 0.59 | /
49 | Cc1ccc(-c2cc(C(=O)N3CCN(c4cccc(Cl)c4)CC3)c3ccccc3n2)c(C)c1 | 1.3 | /
50 | CCOC(=O)c1ccc(Oc2nc(C)cc(OC)n2)cc1 | -0.82 | 0.83
51 | Cc1ccc(S(=O)(=O)c2cn(Cc3ccccc3C)c3nc(C)ccc3c2=O)cc1 | / | 0.24
52 | O=C1NC(Nc2ccccn2)(C(F)(F)F)C(=O)N1c1ccc(F)cc1 (centres undefined) | -0.94 | /
53 | Cc1c(C(=O)N2CCC(N3CCCCC3)CC2)sc2nc3n(c(=O)c12)CCCC3 | / | 3.5
54 | Clc1ccccc1-c1nc(-c2ccc3c(c2)ncn3C2CCCC2)no1 | / | 0.34
55 | CCOC(=O)C1=C(C)NC(SCC(=O)c2ccccc2)=C(C#N)C1CC(C)C (centres undefined) | -1.2 | 1.4
56 | O=C1c2cccnc2C(=O)N1Cc1ccc(S(=O)(=O)NC2CCCC2)cc1 | / | 0.97
57 | CCOC(=O)N1CCN(C(=O)CSc2ccsc2[N+](=O)[O-])CC1 | -1.8 | -0.45
58 | COc1ccc(NS(=O)(=O)c2c(C)nc3sc(C)cn3c2=O)cc1OC | / | -0.23
59 | Cc1ccccc1OCC(O)Cn1c(C(F)(F)F)nc2ccccc21 (centres undefined) | 0.58 | /
60 | CC1CC(C)CN(C(=O)c2ccc3c(=O)n4c(nc3c2)CCCC4)C1 (centres undefined) | / | 1.2

5 compounds picked at random from those above:
no. | mol | CDC25B-CDK2 inh | TAR Tat displ
58 | COc1ccc(NS(=O)(=O)c2c(C)nc3sc(C)cn3c2=O)cc1OC | / | -0.23
34 | C#CCn1c(CCCCC)nc2ccccc21 | 0.47 | 1.1
31 | O=C(COc1ccccc1)Nc1nc(-c2cccs2)ns1 | -0.65 | 0.43
46 | COc1ccc(-c2noc(-c3nnn(-c4cc(F)ccc4F)c3C)n2)cc1 | / | -0.44
43 | CCc1nn(CC(=O)O)c(=O)c2cc3c(OC)cccc3n12 | -0.67 | 0.97

Single values from above:
`Cc1ccc(S(=O)(=O)c2cn(Cc3ccccc3C)c3nc(C)ccc3c2=O)cc1` | TAR Tat displ: 0.24
`CCc1nn(CCCC(=O)NCCC(C)C)c(=O)c2cc3occc3n12` | TAR Tat displ: 0.7
`COc1ccc(NS(=O)(=O)c2c(C)nc3sc(C)cn3c2=O)cc1OC` | TAR Tat displ: -0.23

(list continues)
no. | mol | CDC25B-CDK2 inh | TAR Tat displ
61 | CCN(C(=O)c1nn(C)c2c1COc1ccccc1-2)c1ccccc1 | -1 | 1.3
62 | COC(=O)COc1ccc(Oc2nc(NC(C)(C)C)nc(N3CCOCC3)n2)nn1 | 0.31 | /
63 | O=C1c2cccnc2C(=O)N1CCc1ccc(S(=O)(=O)N2CCc3ccccc3C2)cc1 | / | 1.1
64 | CC1=N/C(=C\c2cc(Cl)cc(Br)c2O)C(=O)O1 | -3.3 | /
65 | Cc1cc2oc(C(=O)Nc3c(C)n(C)n(-c4ccccc4)c3=O)cc(=O)c2cc1C | -2.1 | -0.53
66 | Cc1noc(C)c1-c1nc(CSCc2ccc(Cl)cc2)no1 | -1.6 | /
67 | CSc1cccc(NC(=O)c2cc3c(s2)-c2ccccc2S(=O)(=O)C3)c1 | -4.2 | 1.1
68 | O=C1CC2(CCCCC2)CC(=O)N1c1ccc(I)cc1F | -1.9 | /
69 | O=C(O)c1ccc2nc(-c3ccccc3)c(-c3ccccc3)nc2c1 | 1.3 | 1.4
70 | O=C(CCCN1C(=O)c2cccnc2Oc2ccc(Cl)cc21)NC1CCCC1 | / | -0.42
71 | O=C(c1ccc(CS(=O)c2ccc(F)cc2)o1)N1CCC(N2CCCCC2)CC1 (centres undefined) | / | 0.98
72 | O=C1CSc2ccc(C(=O)N3CCCC3)cc2N1 | / | 0.79
73 | CCOC(=O)C1=C(C)NC2=C(C(=O)CC(c3cccs3)C2)C1c1ccc(F)cc1 (centres undefined) | 1.7 | -0.61
74 | Cc1nnc(SCc2ccc(F)cc2Cl)c2cc3sccc3n12 | / | 2.3
75 | CCOC(=O)c1c[nH]c2nc(C)ccc2c1=O | / | 0.24
76 | CN(C)c1ccc(P(=O)(COc2ccc([N+](=O)[O-])cc2)c2ccc(N(C)C)cc2)cc1 | -1.9 | /
77 | c1cncc(-c2csc(-c3cccnc3)n2)c1 | -1.9 | /
78 | CCOc1nc(-c2cccc(OC)c2)ccc1-c1noc(C)n1 | -0.18 | -0.53
79 | C=CCOc1ccc2c(=O)c(-c3ccc(OC)c(OC)c3)c(C(F)(F)F)oc2c1 | -0.83 | 2.5
80 | CCNC(=O)c1cnc(N2CCOCC2)nc1C | / | 1.8
81 | CCc1ccc(-n2c(=O)c3c4c(sc3n(Cc3cc(=O)n5ccccc5n3)c2=O)CCC4)cc1 | -3.6 | /
82 | O=C1NC(=Nc2ccccc2Cl)SC1(CO)CO | -1.8 | -0.05
83 | CCOCCOC(=O)C1=C(C)NC2=C(C(=O)C(C(=O)OC)C(C)C2)C1c1cccc(F)c1 (centres undefined) | -0.68 | -0.01
84 | OCc1cnc(SCc2ccc(Br)cc2)n1Cc1ccccc1 | / | 1.7
85 | O=C(CN1C(=O)CSc2ccc(S(=O)(=O)N3CCCCC3)cc21)N1CCCC1 | -0.22 | /
86 | COc1ccc2c(c1)CCc1c(C(=O)NCc3ccco3)noc1-2 | -1.8 | /
87 | CCc1nc(SCC(=O)O)c(C#N)c2c1CCCC2 | -1.7 | 1.8
88 | O=C(O)c1ccc(-c2nnc(-c3cccc(Br)c3)o2)cc1 | -0.43 | /
89 | CC(=O)c1cc([N+](=O)[O-])c(SCCO)s1 | -2.1 | /
90 | COc1cc(NC(=O)CC(CC(=O)O)c2ccc(C(F)(F)F)cc2)cc(OC)c1 (centres undefined) | -2.5 | /
91 | COC(=O)C(C)Oc1ccc2c(c1)oc(=O)c1ccccc12 (centres undefined) | -1.4 | 0.12
92 | Cc1cc2n(n1)C(c1ccc3c(c1)OCO3)Nc1c(C)cccc1-2 (centres undefined) | 0.83 | 1.8
93 | COc1cccc2c1OC(CCSC)N1N=C(c3cc(C)ccc3O)CC21 (centres undefined) | -1.1 | -0.55
94 | Cc1nc2c(s1)CCc1oc(C(=O)NCc3ccco3)c(C)c1-2 | / | -0.32
95 | Nc1ncc(Br)cc1S(=O)(=O)NC1CCCCC1 | -1.1 | 1.6
96 | Cc1cc(C)c2oc(C(=O)Nc3sc4c(c3C(N)=O)CCCC4)cc(=O)c2c1 | -0.65 | -0.4
97 | CN1C(=O)C2CCCCN2c2ccc(C(=O)O)cc21 (centres undefined) | / | 1.2
98 | CCOc1ccc(-c2cc(N)n(S(=O)(=O)c3ccc(OC)cc3)n2)cc1 | -1.5 | /
99 | COc1ccc(Oc2coc3cc(OCC(=O)NC4CCCCC4)ccc3c2=O)cc1 | -0.62 | -0.8
100 | N#Cc1cc2c(nc1SCC(=O)c1ccc(F)cc1)CCCC2=O | -1.3 | 1.1
101 | O=C(CS(=O)(=O)c1ccc2c(c1)S(=O)(=O)N=CN2)Nc1cccc(F)c1 | / | 0.16
102 | O=C(Nc1cc(F)ccc1F)c1cnn2c3c(cnc12)CCCCC3 | / | 0.43
103 | COC(=O)c1ccc(C(=O)OC)c2c(C(=O)OC)c(Cl)cc(C(=O)OC)c12 | -0.75 | 1.4
104 | Cc1cc(N2CCc3ccccc3C2)n2nc(-c3ccccc3C)nc2n1 | -0.2 | 0.19
105 | COc1ccc(-c2cc(OC(=O)c3cccc(Br)c3)c3c(C)oc(C)c3c(=O)c2)cc1 | -0.34 | -0.77
106 | CCS(=O)(=O)n1nc(-c2ccccc2OC)cc1N | -1.5 | /
107 | CCN1CCN(C(=O)CCS(=O)(=O)c2cc3c(cc2Cl)NC(=O)CO3)CC1 | / | 2.4
108 | O=C(Nc1ccc(F)cc1)C1CCN(c2ncnc3c2nc2n3CCCCC2)CC1 | / | 0.67
109 | Cc1cn2c(=O)c(S(=O)(=O)Nc3ccc4c(c3)OCO4)c(C)nc2s1 | / | 0.29
110 | Cc1nn(C(C)C(=O)NCc2ccc(Cl)cc2)c(=O)c2cc3occc3n12 (centres undefined) | 0.05 | 0.57
111 | Cc1cccc(-c2nc3c4ccccc4nc(NCc4cccs4)n3n2)c1 | -1.1 | 0.9
